Screening data deposited in PubChem by several laboratories.
Mtb bLac sens: beta-lactam sensitization of Mtb H37Rv | inhibition, % at 25 µM | hit rate 0.27% among 330,000 | AID 434955 | M. tuberculosis H37Rv growth with meropenem, percent inhibition; hits of this screen are not shown here;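 active means about 74% or more and at least 40 points above the plate without the antibiotic, then above 30% in a dose series; inconclusive means first-round hits that could not be retested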;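 further: growth measured after seven days incubation then overnight dye step; 0% = bacteria only wells and 100% = bacteria with antibiotic; twin plates without the antibiotic show which effects depend on it; some results filed as inactive read as strong as hits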
Mtb growth: M. tuberculosis H37Rv growth inhibitors, H37Rv strain (AID 1626); M. tuberculosis H37Rv growth inhibition; higher % means a stronger effect; hit rate 0.95% among 220,000; inhibition, % at 10 µM, or IC50 in µM where a hit was titrated;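 active means confirmed in a dose series; inconclusive means inhibition above 80% but not taken into the dose series; inactive means below 80% or under 30% at every dose of the series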;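 further: bacteria incubated seven days before Alamar blue readout; 0% = bacteria only wells and 100% = bacteria with antibiotic wells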
YopH PTP inh: blocks Yersinia enterocolitica YopH tyrosine phosphatase | hit rate 0.16% among 140,000 | fluorescence Ex485/Em525 | AID 898 | inhibition, %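 (about 10 µM by stock and volumes)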;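 active means inhibition of 50% or more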;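 further: controls were vehicle for no effect and minimum signal wells for full effect; inactives centre near -20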
Arbovirus anti: arbovirus infection inhibition; inhibition, % at 10 µM; AID 1251; arbovirus infection cell-based antiviral screen; hit rate 0.37% among 200,000;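 active means inhibition from about 30%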;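 further: bluetongue infection of BSR cells; cell survival read as ATP light after 72 h; 0% = infected wells without compound and 100% = uninfected wells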
RecA splice inh: Mtb RecA intein splicing inhibition | P9WHJ3 | inhibition, %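 (about 9 µM by stock and volumes)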 | hit rate 0.75% among 290,000 | cell-free RecA intein splicing, fluorescence; in the data active means inhibition above about 30%; inconclusive means no clear call, values can overlap the other calls;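 further: 0% = vehicle wells and 100% = reference inhibitor control wells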
Target sequence (P9WHJ3 whole entry, looked up, canonical isoform): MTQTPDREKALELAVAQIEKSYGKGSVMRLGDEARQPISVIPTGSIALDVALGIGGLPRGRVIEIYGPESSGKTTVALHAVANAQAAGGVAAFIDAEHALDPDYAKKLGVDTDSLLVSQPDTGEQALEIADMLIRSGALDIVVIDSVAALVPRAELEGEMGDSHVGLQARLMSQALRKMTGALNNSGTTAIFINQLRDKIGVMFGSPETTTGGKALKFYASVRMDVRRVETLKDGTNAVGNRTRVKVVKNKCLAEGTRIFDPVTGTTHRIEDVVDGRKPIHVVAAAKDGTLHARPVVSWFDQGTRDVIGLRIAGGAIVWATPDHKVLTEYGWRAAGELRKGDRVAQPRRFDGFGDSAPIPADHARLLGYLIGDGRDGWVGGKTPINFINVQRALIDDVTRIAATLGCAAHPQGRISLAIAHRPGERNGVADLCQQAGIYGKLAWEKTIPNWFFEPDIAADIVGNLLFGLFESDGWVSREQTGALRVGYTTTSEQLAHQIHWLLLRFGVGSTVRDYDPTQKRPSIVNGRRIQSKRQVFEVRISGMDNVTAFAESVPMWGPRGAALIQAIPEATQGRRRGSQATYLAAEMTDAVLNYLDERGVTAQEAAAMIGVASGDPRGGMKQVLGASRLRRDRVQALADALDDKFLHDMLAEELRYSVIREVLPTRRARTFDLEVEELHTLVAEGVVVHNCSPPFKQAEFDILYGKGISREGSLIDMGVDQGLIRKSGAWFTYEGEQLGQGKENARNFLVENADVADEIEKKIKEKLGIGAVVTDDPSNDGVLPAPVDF
Arbovirus anti repeat: recorded beside Arbovirus anti, whose call it bears; inhibition, %; measured here: 10K subset replicate screen; many hits read low in the repeat;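 first of two repeat runs on a subset; 0% = infected and 100% = uninfected wells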
Active calls of the source: *; ? = inconclusive; . = no result given.

SMILES	Mtb bLac sens	Mtb growth	YopH PTP inh	Arbovirus anti	RecA splice inh	others
CC(C)(C)[C@@H]1C=C(C(=O)N2CCN(Cc3ccc4c(c3)OCO4)CC2)O[C@H](OCc2ccc(CO)cc2)C1	18.2	-2.6%	.	-12.1	6.6
COCCNC(=S)N1CCC(c2nc(-c3ccc(N(C)C)cc3)no2)CC1	-3.3	16.3%	.	0.3	-2.9
COc1ccc(-n2cc(CNCC3CCOCC3)c(-c3cccc(F)c3)n2)cc1	-1.9	8.1%	.	-24.8	2.3
Cc1ccc(S(=O)(=O)n2ccc(OC(=O)c3cccs3)n2)cc1	0.1	-8.3%	.	3.9	21.8
Cc1nnc2ccc(N3CCOCC3)nn12	-3.1	2.9%	-26.0	-3.9	-1.9
CN1CCN(C(=O)c2cnn(-c3ccccc3)c2NC(=O)c2cccs2)CC1	3.7	-1.5%	-32.6	0.4	-2.2
CCOC(=O)N1CCN(C(=O)c2cnn3c(C(F)(F)F)cc(-c4cccs4)nc23)CC1	0.0	-3.5%	.	3.0	-20.1
CCSc1nnc(NC(=O)c2nc3nc(C)cc(C)n3n2)s1	-9.7	-18.1%	.	-0.1	1.6
Cc1cc(C)c(S(=O)(=O)ON2C(=O)c3ccccc3C2=O)cc1C	-2.5	2.8%	-30.3	4.4	59.7*
Nc1ccc2nc(SCc3ccc([N+](=O)[O-])cc3)sc2c1	66.0	.	-29.6	1.2	5.1
NS(=O)(=O)c1ccc(CNC(=O)CC23CC4CC(CC(C4)C2)C3)cc1	8.0	.	-9.6	-2.9	-0.9
Cc1ccc(C)c(OCCn2ccnc2)c1	-5.3	.	.	.	-1.5
O=C(Cc1cccs1)N1CCN=C1SCc1ccccc1Cl	5.5	7.7%	.	1.8	8.4
CS(=O)(=O)Nc1ccc(C(=O)NCc2ccco2)cc1	10.3	5.1%	-22.2	-3.8	1.6
Cc1c(NC(=O)Nc2cccc([N+](=O)[O-])c2)c(=O)n(-c2ccccc2)n1C	-17.0	.	.	.	-2.6
C=CCSc1nc2sc(-c3ccccc3)cc2c(=O)n1N	-4.5	4.0%	-34.8	-10.0	-1.2
Cc1cc(C)n2nc(SCC(=O)NC3CCCCC3)nc2n1	3.2	.	.	.	1.5
Cc1nc(CC(=O)Nc2nc(-c3ccccc3)cs2)cs1	52.8	7.0%	-23.4	6.0	2.9
COc1ccc(S(=O)(=O)NCC2CCCN(Cc3ccc(O)cc3)C2)cc1 (stereo unspecified)	-0.1	.	.	.	-1.3
CCCc1cc(=O)n2[nH]c(NCc3ccc(OC)c(OC)c3)nc2n1	-9.1	3.2%	.	5.2	-1.0
COC(=O)c1ccc(S(=O)(=O)NCc2ccc(S(N)(=O)=O)cc2)n1C	-9.1	4.1%	.	.	.
Fc1ccc(Cn2cnc3ccccc32)cc1	6.5	6.0%	-5.1	8.3	1.5
O=C(CCSCCc1ccccn1)Nc1nccs1	-5.2	-4.4%	-1.3	3.6	-0.4	Arbovirus anti repeat=1.8
CC(C)Cc1nnc(NC(=O)CSc2nc(O)c(-c3ccccc3)c(=O)[nH]2)s1	?	-18.5%	.	5.3	4.8
O=C(OCc1ccc([N+](=O)[O-])cc1)C1CC(=O)N(c2ccccc2)C1 (stereo unspecified)	-2.3	-11.5%	-17.1	3.1	1.8

In the list so far, three contain fluorine:
SMILES	Mtb bLac sens	Mtb growth	YopH PTP inh	Arbovirus anti	RecA splice inh	others
COc1ccc(-n2cc(CNCC3CCOCC3)c(-c3cccc(F)c3)n2)cc1	-1.9	8.1%	.	-24.8	2.3
CCOC(=O)N1CCN(C(=O)c2cnn3c(C(F)(F)F)cc(-c4cccs4)nc23)CC1	0.0	-3.5%	.	3.0	-20.1
Fc1ccc(Cn2cnc3ccccc32)cc1	6.5	6.0%	-5.1	8.3	1.5

Next section
SMILES	Mtb bLac sens	Mtb growth	YopH PTP inh	Arbovirus anti	RecA splice inh	others
COc1ccc(CN2CCNC(=O)C2CC(=O)NCc2cnn(C)c2)cc1OC (stereo unspecified)	-4.3	-2.3%	.	4.2	-1.8
O=C(CCCOc1ccccc1)N1CCN(c2ccccn2)CC1	-4.6	-8.2%	-22.2	5.9	-1.2
O=C(Nc1ccccc1[N+](=O)[O-])C1COc2ccccc2O1 (stereo unspecified)	2.0	.	.	.	4.1
COc1cccc(-c2cccc(NC(=O)C3CCN(C4CCOCC4)CC3)c2)c1	0.9	.	.	.	-1.7
CCOC(=O)CC(NC(=O)c1ccccc1F)c1ccc(C)cc1 (stereo unspecified)	-12.3	-2.4%	.	17.5	-0.2
CCOP(=O)(OCC)C(O)c1cccc([N+](=O)[O-])c1 (stereo unspecified)	-5.0	-2.2%	.	13.8	3.1
Cc1cc(N2CCCC2=O)cc(C)c1CN1C(=O)c2ccccc2C1=O	0.6	-8.8%	-25.2	-0.8	1.9
CCn1cc(C(=O)N[C@@H](C)C(=O)NCCCO)c(=O)c2cc3c(cc21)OCO3	1.3	.	.	.	-3.1
Cc1ccc(C2(c3noc(CN(C)CCCN4CCOCC4)n3)CCCC2)cc1	3.7	3.6%	.	-16.0	-3.2
O=C(NCc1ccco1)c1cc(S(=O)(=O)N2CCOCC2)ccc1Cl	-10.8	-2.3%	14.6	5.6	-0.9	Arbovirus anti repeat=-1.4
COc1ccc(Cl)cc1NC(=O)NCc1ccc2c(c1)OCO2	-10.1	.	.	.	-1.6
Cc1ccc(-c2nnn(CC(=O)N(c3ccc(F)cc3)C(C(=O)NC3CCCC3)c3ccncc3)n2)o1 (stereo unspecified)	4.0	.	.	.	-0.5
N#CCSc1nc2ccccc2c(=O)n1-c1ccccc1	-16.8	-3.1%	3.6	1.3	14.1
Cc1ccc(CC(=O)N2CCN(C(=O)c3ccco3)CC2)cc1	3.0	0.8%	.	-2.8	1.2
CCN(CC)CCn1c(=N)n(CCO)c2ccccc21	-3.2	-6.5%	-23.3	5.1	-4.3	Arbovirus anti repeat=2.1
Cc1ccc(-n2cc(-c3ccccc3)c3c(N4CCN(C)CC4)ncnc32)cc1	63.5	26.8%	.	-38.9	-1.6
CC(=O)Nc1c(-c2ccc(Cl)cc2)c(=O)c2ccccc2n1C	-8.3	.	.	.	-2.7
CC(Nc1cccnc1)=C(C#N)C#N	-5.3	-3.4%	.	2.0	-3.3
O=C(Nc1ccc2oc(-c3ccc4ccccc4c3)nc2c1)c1ccc2c(c1)OCCO2	5.0	-6.3%	-4.1	-31.1	0.5
CCCCCC(=O)N1CCN(S(=O)(=O)c2ccc3c(c2)OCCO3)CC1	-1.6	.	.	.	-2.5
O=C(C1CCCN(Cc2ccccc2Cl)C1)N1CCCCC1 (stereo unspecified)	-4.5	.	.	.	1.1
O=C(C1CCC1)N1CCN(S(=O)(=O)c2ccc(Br)cc2Cl)CC1	-15.4	.	.	.	-0.2
COc1ccc(CCNC(=O)C(=O)NCC2OCCN2S(=O)(=O)c2ccc(C)cc2)cc1OC (stereo unspecified)	-8.1	.	.	.	-5.0
CCC1(C)Cc2c(C#N)c(N)n(-c3ccccc3)c(=O)c2CO1 (stereo unspecified)	11.5	-10.5%	-36.5	8.5	3.4
CC1=C(C(=O)Nc2ccccc2)C(c2ccco2)NC(=O)N1 (stereo unspecified)	0.1	-10.5%	37.6	10.2	0.0

Continuation.
SMILES	Mtb bLac sens	Mtb growth	YopH PTP inh	Arbovirus anti	RecA splice inh	others
COc1cc(CCC(=O)N2CC(C)OC(C)C2)cc(OC)c1OC (stereo unspecified)	-0.2	.	.	.	-1.2
CCOC(=O)c1ccc(NC(=O)c2ccc(OC(C)C)c(OC)c2)cc1	98.6	14.1µM*	.	-8.5	2.2
CCn1nnc(NC(=S)NC(=O)c2ccc(-c3cccc(Cl)c3)o2)n1	33.3	?	.	.	-2.6
O=C(NC1CCS(=O)(=O)C1)/C(=C\c1ccco1)NC(=O)c1ccccc1 (stereo unspecified)	-4.3	7.8%	.	.	-3.4
COC(=O)c1cccc(Nc2cc(C)nc(-c3ccccc3O)n2)c1	5.0	17.1%	-41.7	-0.7	-0.2
Cc1ccc(NN2C(=O)C=CC2=O)cc1	16.6	0.4%	-7.2	-2.5	8.1
COCCN1C(=O)C(=O)/C(=C(/O)c2ccc3c(c2)OCCO3)C1c1ccc(C(=O)OC)cc1 (stereo unspecified)	-3.1	2.0%	-22.5	-2.5	-1.7
O=C(NC1CCCC1)C1CCN(C(=O)c2ccc(-c3ccccc3)cc2)CC1	-0.7	1.4%	.	-11.7	1.5
CCOC(=O)N1CCc2c(sc3nc(SC(C)C)n(N)c(=O)c23)C1	64.4	5.2%	-1.7	2.6	1.7
O=C(Nc1ccccc1F)c1cc2c(s1)-c1ccccc1S(=O)(=O)C2	0.8	.	.	.	-1.6
O=C(NCC1CCCO1)c1ccc(NS(=O)(=O)c2cccc([N+](=O)[O-])c2)cc1 (stereo unspecified)	-3.6	-2.1%	.	3.5	-9.7
CC(=O)Nc1nnc(COc2ccc(Cl)cc2)s1	0.4	4.6%	.	4.7	-0.2
COc1ccc(-c2nc(CS(=O)CC(=O)N3CCN(C)CC3)c(C)o2)cc1OC (stereo unspecified)	2.6	.	.	.	-3.7
Cc1ccc(CNC(=O)C2C3C=CC(C3)C2C(=O)O)cc1 (stereo unspecified)	3.4	-6.2%	-33.0	5.2	-0.6
COc1cccc(C(=O)NCc2cn3ccsc3n2)c1	-2.3	6.0%	10.8	-0.7	-0.9	Arbovirus anti repeat=-2.8
O=C(CN(CCO)c1ccccc1)Nc1ccc(Cl)c(S(=O)(=O)N2CCOCC2)c1	-0.3	-4.5%	.	4.2	-4.5
O=C(COC(=O)c1cc(S(=O)(=O)N2CCOCC2)ccc1F)Nc1c(Cl)cccc1C(F)(F)F	-0.7	.	.	.	3.9
Cc1ccc(-c2cc(C(F)(F)F)n3nc(C(=O)Nc4c(C)n(C)n(-c5ccccc5)c4=O)cc3n2)cc1	-11.1	-0.3%	-1.5	8.7	0.3
CN1c2ccccc2C(C)(C)C12CC(c1ccc(S(=O)(=O)N3CCCCC3)cc1)=NO2 (stereo unspecified)	8.6	2.8%	-32.3	17.0	-0.2
N#CC1=C(N)OC2=C(CCc3ccccc32)C1c1ccccc1Cl (stereo unspecified)	1.5	11.3%	-7.3	-32.7	-3.2
COc1ccc(/C=N/NC(=S)SC)cc1OC	-0.7	1.2%	.	-0.5	-4.2
COC(=O)c1ccc(NC(=O)CC(=O)Nc2ccc(C(=O)OC)cc2)cc1	-2.0	.	.	.	-0.2
CC(C)[C@H](NC(=O)N1CC(=O)Nc2ccccc21)C(=O)N[C@@H](C(=O)O)c1ccccc1	0.2	.	.	.	0.4
COc1ccc(-c2c3c(=O)n(C)c(=O)n(C)c3cn2-c2cccc(OC)c2)cc1	5.6	-0.5%	-60.8	-18.4	4.3
c1ccc(OCCCc2nc(-c3ccccn3)no2)cc1	3.4	7.1%	-23.1	-1.5	2.7

Four records picked at random from those above, as already listed:
SMILES	Mtb bLac sens	Mtb growth	YopH PTP inh	Arbovirus anti	RecA splice inh	others
O=C(CCCOc1ccccc1)N1CCN(c2ccccn2)CC1	-4.6	-8.2%	-22.2	5.9	-1.2
N#CCSc1nc2ccccc2c(=O)n1-c1ccccc1	-16.8	-3.1%	3.6	1.3	14.1
c1ccc(OCCCc2nc(-c3ccccn3)no2)cc1	3.4	7.1%	-23.1	-1.5	2.7
Cc1ccc(-c2cc(C(F)(F)F)n3nc(C(=O)Nc4c(C)n(C)n(-c5ccccc5)c4=O)cc3n2)cc1	-11.1	-0.3%	-1.5	8.7	0.3

Additional results follow.
SMILES	Mtb bLac sens	Mtb growth	YopH PTP inh	Arbovirus anti	RecA splice inh	others
CCOC(=O)C1(CC/C(C)=N\NC(N)=O)CC(C)OC1=O (stereo unspecified)	-6.5	0.7%	-18.4	4.4	-3.7
Cc1ccccc1CC1(CO)CCCN(C(=O)c2cccc(Cl)c2)C1 (stereo unspecified)	5.7	-5.0%	.	6.0	4.7
CCN(C(=O)c1cccc(Br)c1)c1ccccc1	8.2	4.3%	-9.7	1.1	0.6
O=C(NCCc1ccc(C(F)(F)F)cc1)C1CCC(=O)N(CCCN2CCCC2=O)C1 (stereo unspecified)	4.2	.	.	.	-2.1
CCc1ccc(O)c(N=Cc2cccc(C)c2O)c1	4.8	-9.3%	-37.5	8.9	-2.0
CCOc1ccc(OCC)c(-c2c(=O)n(OCc3ccc(C(C)(C)C)cc3)c3ccccc3[n+]2[O-])c1	-2.1	10.0%	-22.8	3.8	7.6
O=C(c1ccc2c(=O)n(Cc3ccc4c(c3)OCO4)c(=O)[nH]c2c1)N1CCN(c2ccccc2)CC1	-2.5	.	.	.	-0.3
C=CCN1C(=O)/C(=C/c2cc(C)n(-c3cccnc3)c2C)C(=O)NC1=S	4.9	0.8%	-9.3	1.6	-6.9
O=c1cc(-c2ccccc2)c2c(O)cc(O)cc2o1	-0.9	.	.	.	-3.0
Cc1ccc(OCC(=O)N2CCC3(CC2)CC(=O)c2ccccc2O3)cc1	-11.4	.	.	.	2.4

This is a subset, so the mix of outcomes need not match the whole.
